Assay outcomes from PubChem BioAssay.
VACV Venus inh: inhibitors of vaccinia virus (Venus reporter). Vaccinia virus Venus reporter expression, fluorescence. AID 720580. Potency, µM (titrated, usually from 36.5 µM), inactives show at the top dose activity change, negative = inhibition, usual class: inhibitors. hit rate 0.46% among 330,000; active means well fitted inhibition curve with a large enough effect; inconclusive means small, poorly fitted or top-dose-only effect; inactive means no such curve, though single readings can be large or run the other way; tested in A549 cells; note: nearly all actives have a fitted effect of over 30% in size; inactives centre near -10
VACV mCherry inh: vaccinia inhibition (mCherry reporter) | Potency, µM (highest dose often 36.5 µM), for inactives: at the top dose activity change, negative = inhibition, usual class: inhibitors | hit rate 0.63% among 310,000 | AID 720579 | Vaccinia virus mCherry reporter infection, fluorescence; about a quarter of the inactives have no number; active = well fitted inhibition curve with a large enough effect; inconclusive = small, poorly fitted or top-dose-only effect; inactive = no such curve, though single readings can be large or run the other way; tested in A549 cells; note: nearly all actives have a fitted effect of over 35% in size; inactives centre near -10
An asterisk follows results filed as active; i = inactive; ? = inconclusive; . = no result given; [ ] = dose if it differs, or a comment. % is set by controls: 0 for no effect and ±100 for the full control effect; potency is the fitted concentration of half-maximal effect. Hits appear at their usual frequency; 0.82% or so of the library scored in one or more.

| cpd | smiles | VACV Venus inh | VACV mCherry inh |
| --- | --- | --- | --- |
| 1 | CC(C)NC(=O)c1ccc2c(c1)N(CC(=O)NC1CCCCC1)C(=O)C(C)(C)O2 | 1% | 1% |
| 2 | CC1(C)CN(Cc2ccccc2)C(=O)[C@H]1CC(=O)Nc1ccc(Br)cc1 | -24% | -1% |
| 3 | O=C(Nc1ccc(F)cc1)C(c1cccc(F)c1)N1CCN(Cc2c(F)cccc2Cl)CC1 (stereo not given) | -15% | -29% |
| 4 | Cc1cccc(CN2C(=O)CC(c3ccc(Cl)cc3)c3c(C)nn(-c4nc(C)cc(C)n4)c32)c1 (stereo not given) | -14% | -7% |
| 5 | CC(C)C[C@@H](CNCC(=O)[C@H](CC(C)C)NC(=O)c1[nH]cnc1C(=O)N[C@H](CN)CC(C)C)NC(=O)c1nc[nH]c1C(=O)N[C@@H](CC(=O)O)C(=O)O | -2% | i |
| 6 | Cc1c(NC(=O)Nc2ccc(Cl)c(Cl)c2)c(=O)n(-c2ccccc2)n1C | -9% | -15% |
| 7 | COc1ccc(/C=C2\SC(=O)N(CCNC(=O)CN3C(=O)NC4(CCCC4)C3=O)C2=O)cc1 | -23% | ? |
| 8 | C[C@H](CO)N1C[C@H](C)[C@@H](CN(C)C(=O)Nc2ccc(C(F)(F)F)cc2)Oc2ccc(NS(=O)(=O)c3cccs3)cc2C1=O | -17% | -18% |
| 9 | CCc1ccc(C2CC(c3ccc(Cl)cc3)=NNC2=O)cc1 (stereo not given) | -1% | -15% |
| 10 | COc1cc(C(=O)NCCC(C)C)ccc1OCc1ccc(Cl)cc1Cl | ? | -11% |
| 11 | COc1ccc(C)c2sc(=NC(=O)c3ccccc3)n(C)c12 | 0% | i |
| 12 | COC(=O)CS(=O)(=O)c1cc(Br)cc2c1N(C(C)=O)CC2 | -10% | . |
| 13 | CCOC(=O)c1noc2ncnc(N3CCN(c4ccccc4OC)CC3)c12 | -10% | -14% |
| 14 | COc1ccc(-n2cnc3c(cnn3CCC#N)c2=N)cc1 | 26% | . |
| 15 | CC(=O)C1=CCC(c2ccc(C(C)C)cc2)N(S(=O)(=O)c2ccc(C)cc2)C1 (stereo not given) | -1% | i |
| 16 | CCN(CC)C(=O)C1CCCN(c2ccc([N+](=O)[O-])cc2)C1 (stereo not given) | -1% | -9% |
| 17 | OCC[C@@H]1C[C@H](O)[C@@H](O)[C@@]2(OCc3cc(C(F)(F)F)ccc32)O1 | -20% | -11% |
| 18 | O=C(CNCCO)N1CCc2ccccc21 | -4% | . |
| 19 | CCCN(C(=O)Cc1coc2cc(OC)ccc12)C1CCS(=O)(=O)C1 (stereo not given) | 2% | -13% |
| 20 | O=C(CSc1nc2ccc([N+](=O)[O-])cc2[nH]1)NC1CCCCCC1 | ? | ? |
| 21 | COc1cc(/C=C(/C#N)c2nc3ccccc3[nH]2)ccc1OCC(=O)Nc1ccccc1C | -12% | 9% |
| 22 | CN(C)c1ccc(/C=N/O)cc1 | 0% | i |
| 23 | Cc1cc(S(=O)(=O)C(CNC(=O)COc2ccc(Cl)cc2)c2cccs2)ccc1F (stereo not given) | -26% | -25% |
| 24 | COc1cccc(OC)c1OC(=O)c1ccccc1 | 0% | i |
| 25 | O=C(N[C@@H](c1ccccc1)[C@@H]1C[C@H]1C(=O)NCc1ccccn1)OCc1ccccc1 | -5% | i |
| 26 | CCc1nn(CC(=O)NC(C)CCc2ccccc2)c(=O)c2cc3c(OC)cccc3n12 (stereo not given) | -4% | -9% |
| 27 | COCCNC(=O)c1onc(CCl)c1C(=O)OC | ? | ? |
| 28 | Cc1cccc(NC(=O)COc2ccc(Br)cc2)n1 | -15% | i |
| 29 | COc1ccc(N2C(=O)C(Cl)=C(Nc3ccc(OC)cc3OC)C2=O)cc1 | -17% | -9% |
| 30 | Cc1ccc(S(=O)(=O)N2CCCCC2)cc1C(=O)OC(C)C(=O)NCC1CCCCC1 (stereo not given) | ? | ? |
| 31 | COc1cccc(NC(=O)N2CCCC2C(=O)NCc2ccccc2F)c1 (stereo not given) | -10% | -15% |
| 32 | CCCn1c(C2CCCN2c2nc(-c3ccc(OC)cc3)cs2)nc2ccccc21 (stereo not given) | -17% | -29% |

Rewritten in transposed form: part of the list above
[11] COc1ccc(C)c2sc(=NC(=O)c3ccccc3)n(C)c12
[12] COC(=O)CS(=O)(=O)c1cc(Br)cc2c1N(C(C)=O)CC2
[13] CCOC(=O)c1noc2ncnc(N3CCN(c4ccccc4OC)CC3)c12
[14] COc1ccc(-n2cnc3c(cnn3CCC#N)c2=N)cc1
[15] CC(=O)C1=CCC(c2ccc(C(C)C)cc2)N(S(=O)(=O)c2ccc(C)cc2)C1 (stereo not given)
[16] CCN(CC)C(=O)C1CCCN(c2ccc([N+](=O)[O-])cc2)C1 (stereo not given)
[17] OCC[C@@H]1C[C@H](O)[C@@H](O)[C@@]2(OCc3cc(C(F)(F)F)ccc32)O1
[18] O=C(CNCCO)N1CCc2ccccc21
[19] CCCN(C(=O)Cc1coc2cc(OC)ccc12)C1CCS(=O)(=O)C1 (stereo not given)
[20] O=C(CSc1nc2ccc([N+](=O)[O-])cc2[nH]1)NC1CCCCCC1

assay / entry	11	12	13	14	15	16	17	18	19	20
VACV Venus inh	0%	-10%	-10%	26%	-1%	-1%	-20%	-4%	2%	?
VACV mCherry inh	i	.	-14%	.	i	-9%	-11%	.	-13%	?

[21] COc1cc(/C=C(/C#N)c2nc3ccccc3[nH]2)ccc1OCC(=O)Nc1ccccc1C
[22] CN(C)c1ccc(/C=N/O)cc1
[23] Cc1cc(S(=O)(=O)C(CNC(=O)COc2ccc(Cl)cc2)c2cccs2)ccc1F (stereo not given)
[24] COc1cccc(OC)c1OC(=O)c1ccccc1
[25] O=C(N[C@@H](c1ccccc1)[C@@H]1C[C@H]1C(=O)NCc1ccccn1)OCc1ccccc1
[26] CCc1nn(CC(=O)NC(C)CCc2ccccc2)c(=O)c2cc3c(OC)cccc3n12 (stereo not given)
[27] COCCNC(=O)c1onc(CCl)c1C(=O)OC
[28] Cc1cccc(NC(=O)COc2ccc(Br)cc2)n1
[29] COc1ccc(N2C(=O)C(Cl)=C(Nc3ccc(OC)cc3OC)C2=O)cc1

assay / entry	21	22	23	24	25	26	27	28	29
VACV Venus inh	-12%	0%	-26%	0%	-5%	-4%	?	-15%	-17%
VACV mCherry inh	9%	i	-25%	i	i	-9%	?	i	-9%

Continued:
| cpd | smiles | VACV Venus inh | VACV mCherry inh |
| --- | --- | --- | --- |
| 33 | COc1cc(OC)c(NC(=O)CCc2c(C)nc3ncnn3c2C)cc1Cl | 3% | -5% |
| 34 | Cc1cc(C)c2oc(-c3cccc(NC(=O)COc4ccc(Cl)cc4C)c3C)nc2c1 | 6% | 25% |
| 35 | CC1CCC(C(C)C)C(OC(=O)C[n+]2cc(-c3ccc(Cl)cc3)n3c2CCCCC3)C1 (stereo not given) | -7% | i |
| 36 | CCOc1ccccc1C(=O)Nn1c(C2CCC2)nc2ccccc2c1=O | -1% | i |
| 37 | O=C(COC(=O)c1ccccc1O)NC12CC3CC(CC(C3)C1)C2 | -9% | -24% |
| 38 | C[C@@H]1C=C(C(=O)N2CCN(Cc3ccc4c(c3)OCO4)CC2)O[C@H](OCCCCO)C1 | 3% | -10% |
| 39 | Cc1ccc(/C=C/C(=O)Nc2nccs2)o1 | -4% | i |
| 40 | O=C(NCCCCc1ccccc1)c1ccccc1 | -9% | -5% |
| 41 | O=C(c1ccccc1)c1ccc2nc[nH]c2c1 | -17% | -2% |
| 42 | O=C(Oc1ccc[nH]c1=O)C1CC1 | -16% | i |
| 43 | Cc1ccc(-n2nnnc2-c2ccccc2Br)cc1 | -7% | -3% |
| 44 | CC12CN3CC(C)(CN(C1)C3c1ccccc1)C2O (stereo not given) | -10% | -26% |
| 45 | COc1ccccc1C(=O)Nc1ccc2nc(SCC(=O)N(C)c3ccccc3)sc2c1 | ? | -28% |
| 46 | COc1ccc(OC)c(N(CC(=O)Nc2ccc3c(c2)OCCO3)S(C)(=O)=O)c1 | -5% | . |
| 47 | CCCCCCCCNC(=O)c1cccnc1SCC(=O)Nc1ccccc1OC | -2% | -11% |
| 48 | COc1ccc(-c2coc3c(C(=O)N4CCN(C)CC4)cccc23)c(C)c1 | -8% | i |
| 49 | CCOc1ccc(OCC)c(NC(=O)c2cc(C)nc3c2c(C)nn3-c2cccc(Cl)c2C)c1 | -19% | -19% |
| 50 | Cc1ccc(Cc2cc(-c3ccc(C)cc3)n[nH]c2=O)cc1 | -16%[7.34 µM] | i[7.34 µM] |
| 51 | O=C1CCCN1c1ccc([N+](=O)[O-])cc1 | -14% | -10% |
| 52 | Cc1cc(C)c(C)c(OCCOCCN2CCOCC2)c1 | -4% | i |
| 53 | COc1cc(NC(=O)CN(C)S(=O)(=O)c2ccc3c(c2)CC(C)N3C(C)=O)cc(OC)c1OC (stereo not given) | -9% | -14% |
| 54 | Cc1ccc2c(c1)C(C)(C)[C@]1(C)NC(=O)CCN21 | 8% | . |
| 55 | CC(CC(=O)O)n1nnc2ccccc21 (stereo not given) | 4% | i |
| 56 | CS(=O)(=O)Nc1ccc(S(=O)(=O)Nc2nccs2)cc1 | -6% | . |
| 57 | CCN1C(=O)[C@H]2[C@@H](c3ccc(-c4ccc(C(C)=O)cc4)cc3)N[C@@](C)(C(=O)OC)[C@H]2C1=O | -11% | -13% |
| 58 | O=C(NC(Cc1ccccc1)c1nc2ccccc2[nH]1)C1CC(=O)N(c2ccc3c(c2)OCCO3)C1 (stereo not given) | 6% | 10% |
| 59 | O=C(N/N=C/c1c(O)n(Cc2ccc(F)cc2)c(=O)[nH]c1=O)c1ccccc1O | -2% | -8% |
| 60 | CC(C)CNC(=O)C1C(=O)Nc2ccccc2C(=O)N1C1CCCCC1 (stereo not given) | -7% | -14% |
| 61 | CCOC(=O)CN1N=C(c2ccc(Cl)cc2)CCC1=O | -9% | i |
| 62 | CN(CC(=O)Nc1ccc(S(N)(=O)=O)cc1)c1ccccc1 | -6% | -9% |
| 63 | O=S(=O)(Nc1ccccc1N1CCCC1)c1ccccc1C(F)(F)F | -8% | -35% |
| 64 | O=C(O)C1=C[C@@H](c2ccc(Br)cc2)C[C@@H](OCCCCO)O1 | -11% | -4% |
| 65 | CN(C)S(=O)(=O)c1ccc(C(=O)Nc2c(C(=O)Nc3ccc(F)cc3)oc3ccccc23)cc1 | -8% | 0% |
| 66 | COc1ccc(-n2cnc3cc(C(=O)N4CCOCC4)ccc32)cc1 | -8%[7.34 µM] | -12%[7.34 µM] |
| 67 | CN(NC(=O)c1ccccc1Cl)c1ncc(C(F)(F)F)cc1Cl | -8% | -8% |
| 68 | COc1ccc(NC(=O)/C(C#N)=C/c2ncc([N+](=O)[O-])n2C)c(OC)c1 | -10%[7.34 µM] | -25%[7.34 µM] |
| 69 | COc1ccc(Cn2c(CCC(=O)N3CCN(c4ccccn4)CC3)nc3ncccc3c2=O)cc1 | -5% | -26% |
| 70 | S=C(NCc1ccncc1)NC1CCCC1 | -6% | -4% |
| 71 | COc1ccc(S(=O)(=O)Nc2ccccc2C(=O)NCc2ccco2)cc1Br | ? | . |
| 72 | O=C(COc1ccccc1Cl)NCC(c1cccs1)N1CCOCC1 (stereo not given) | -11% | i |
| 73 | O=c1[nH]c2ccccc2c(=O)n1Cc1ccco1 | -3% | . |
| 74 | COc1cc(C(=O)Nc2cccc(-c3nc4ccccc4o3)c2C)cc(OC)c1OC | -4% | -9% |
| 75 | CC(C)CNc1cc(=O)n(C)c(=O)n1C | -7% | -9% |
| 76 | Cc1nc2cc(-c3cccc(F)c3)nn2c(C)c1CCC(=O)NC(C)c1ccc2c(c1)OCCO2 (stereo not given) | ? | -26% |
| 77 | NC(c1ccc(F)c(F)c1)c1nc(-c2cc(F)cc(F)c2)cs1 (stereo not given) | 6% | 3% |
| 78 | CCCCNC(=O)OCC(CC)NC(=O)OC(C)C (stereo not given) | -8% | . |
| 79 | COc1ccc([N+](=O)[O-])c2c(=O)ccoc12 | -16% | -22% |
| 80 | COc1ccc(-c2ccc3c(c2)C2CC3CCN2C(=O)OCc2ccccc2)cc1 (stereo not given) | -1% | -25% |
| 81 | COC(=O)c1nc2nc(C)cc(=O)n2[nH]1 | -4% | . |
| 82 | Nc1cc(=O)[nH]c(SCC(=O)N2N=C(c3ccc(Cl)cc3)CC2c2ccco2)n1 (stereo not given) | 1% | -11% |
| 83 | Cc1ccc(/C=N/NC(=S)NC(C)C)o1 | -2% | -14% |
| 84 | CCOC(=O)C1(C)CCCN(C(=O)c2cc(OC)c(OC)c(OC)c2)C1 (stereo not given) | -8% | i |
| 85 | O=[N+]([O-])c1cccc(/C=N/n2cnnc2)c1 | -21% | -1% |
| 86 | CC1CN2C(c3ccc([N+](=O)[O-])cc3)=CSC2=N1 (stereo not given) | -5% | i |
| 87 | CCCCN(C)C(=O)CSc1c2c(nc3ccc(Cl)cc13)CCCC2 | -11%[7.34 µM] | -12%[7.34 µM] |
| 88 | O=C(Cc1ccccc1)NNC(=O)c1cccs1 | 0% | -16% |
| 89 | Cc1cc(Cl)ccc1OCC(=O)Nc1ccccc1N1CCOCC1 | -27% | -24% |
| 90 | Cc1cc(C)cc(Oc2c(C(F)(F)F)oc3cc(OCC(=O)NC4CCCCC4)ccc3c2=O)c1 | 1% | -9% |
| 91 | CCC(OC(=O)CNS(=O)(=O)c1ccccc1)C(=O)c1ccccc1 (stereo not given) | -8% | i |
